Screening data as filed in PubChem.
FGF22 binding – binders of recombinant human FGF22 by thermal shift. Q9HCT0. SYPRO orange fluorescence; percent of sucrose octasulfate shift, DMSO zero. 340,000 tested, 1.5% active. calls only at 9.99 µM. AID 651658;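 active means melting point raised past a set limit in the mean and every replicate; inconclusive means no clear call; three in four hits are not shown here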
Target sequence (Q9HCT0 whole entry, looked up): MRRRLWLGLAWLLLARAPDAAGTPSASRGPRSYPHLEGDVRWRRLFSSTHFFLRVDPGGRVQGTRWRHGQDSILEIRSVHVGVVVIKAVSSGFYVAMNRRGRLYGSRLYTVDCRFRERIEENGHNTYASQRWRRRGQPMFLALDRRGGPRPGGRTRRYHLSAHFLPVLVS
E coli growth – inhibitors of Escherichia coli growth. 330,000 tested, 0.21% active. OD600, 23 h; active compounds read low. OD600 absorbance (test concentration not listed);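 active means OD600 absorbance below the run mean of sample wells minus 3.6 SD, in any replicate, cut at about 0.56 in these data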;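 further: stock transfer was 300 nL into about 60 µL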
ALR inh – human ALR oxidase inhibition via reduced H2O2; inhibition, % (no concentration beside the values); purified ALR, DTT oxidation, H2O2 HRP-luminol luminescence; P55789; AID 485317; 290,000 tested, 3.8% active;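 active means mean and each replicate at 75% or more; inconclusive means only one of the two met; inactive means neither met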;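 further: stock transfer was 7.5 nL into about 7.5 µL; 0% = neutral wells and 100% = wells with inactivated enzyme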
Target sequence (P55789 whole entry, looked up): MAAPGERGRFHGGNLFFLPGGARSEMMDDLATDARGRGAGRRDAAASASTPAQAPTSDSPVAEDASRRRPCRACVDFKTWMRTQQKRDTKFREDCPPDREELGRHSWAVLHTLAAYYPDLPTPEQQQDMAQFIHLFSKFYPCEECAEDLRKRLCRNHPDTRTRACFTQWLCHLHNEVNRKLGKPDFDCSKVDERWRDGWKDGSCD
rRNA inh HTS – inhibitors of bacterial rRNA selective over humanized ribosomes; E. coli WT GFP vs humanized-ribosome RFP mutants, fluorescence, 24 h; active compounds read low; DMSO median 0, no signal -100; GFP signal change (wild-type ribosome), % (no concentration beside the values); 350,000 tested, 1.6% active;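 active means significant combined selectivity score with lowered wild-type GFP, culture density cut under 30%, mutant RFP and density less affected; inactive means any of these conditions unmet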; further: one replicate is shown; some compounds called inactive have numbers as strong as hits
AF4-AF9 inh – blocks AF4 peptide binding to human AF9; inhibition, % at 10 µM; AlphaScreen, biotin-AF4 peptide binding to FLAG-AF9; 350,000 tested, 0.47% active; P42568;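 active means every replicate reaching a set inhibition limit, whatever the replicate mean, cut at about 25% in these data; inconclusive means mean inhibition reaches that limit but some replicates miss it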;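 further: 0% = plate neutral control median and 100% = total signal loss; the record names both 10 and 1 µM as test concentration; the first replicate is given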
Target sequence (P42568 whole entry, looked up): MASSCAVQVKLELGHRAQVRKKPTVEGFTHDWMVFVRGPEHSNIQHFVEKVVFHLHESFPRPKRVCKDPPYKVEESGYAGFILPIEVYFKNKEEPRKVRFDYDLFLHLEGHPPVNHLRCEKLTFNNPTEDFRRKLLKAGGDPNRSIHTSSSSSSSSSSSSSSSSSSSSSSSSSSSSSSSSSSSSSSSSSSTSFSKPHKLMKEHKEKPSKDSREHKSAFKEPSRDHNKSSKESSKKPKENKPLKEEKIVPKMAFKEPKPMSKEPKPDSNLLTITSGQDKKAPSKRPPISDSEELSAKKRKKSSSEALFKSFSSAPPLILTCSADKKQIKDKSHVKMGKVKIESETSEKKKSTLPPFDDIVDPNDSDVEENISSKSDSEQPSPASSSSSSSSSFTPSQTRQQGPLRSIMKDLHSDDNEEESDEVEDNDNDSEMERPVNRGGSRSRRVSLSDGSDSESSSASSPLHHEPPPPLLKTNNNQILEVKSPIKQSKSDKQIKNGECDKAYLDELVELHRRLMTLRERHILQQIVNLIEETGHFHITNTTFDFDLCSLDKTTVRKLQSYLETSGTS
Vif TR-FRET – HIV-1 Vif–A3G interaction blockers – biochemical, TR-FRET, GST-Vif 1-94, biotin-A3G peptide, dose response retest, primary screen (AID 1117319); 260,000 tested, 0.57% active; TR-FRET GST-Vif / biotin-A3G peptide binding; higher % means a stronger effect; test concentration not given here; strong numbers were not always called active; inhibition, %; hits with a dose series show IC50 in µM;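 active means above the screen mean plus three standard deviations and confirmed in dose response; inconclusive means results disagree or hit not tested in dose response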;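 further: Vif residues 1-94 fused to GST binding biotinylated APOBEC3G peptide 110-148; 0% = full assay without inhibitor and 100% = GST in place of GST-Vif; retest series ran down from 100 µM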
HNF4A DNA FP – change in binding of human HNF4 alpha to DNA; HNF4a-FITC DNA binding, fluorescence polarization, 1 h; activity change, % at 10 µM; 360,000 tested, 0.3% active; AID 1224865; P41235; in the data active means activity change above about 30%, passing the limit was not always enough;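 further: controls were the assay level and a saturating level of protein; the project sought stronger binding though the title names inhibitors; some compounds called inactive have numbers as strong as hits; positive values seem to mean higher polarization but the record does not say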
rRNA inh HTS OD600 – recorded beside rRNA inh HTS, whose call it bears; OD600 change, %; measured here: OD600 growth;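 optical density of the mix in the first replicate; 0 = DMSO median and -100 = no signal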
rRNA inh HTS RFP – second read-out of rRNA inh HTS, no call of its own (marks repeat the call); RFP signal change, %; measured here: RFP humanized mutant strains;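 first replicate; 0 = DMSO median and -100 = no signal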
* marks the source's active call; other numbers are inactive results; & = joins results of further samples.

CC(C)c1ccc2c(c1)c(SC(C)(C)C)c(CC(C)(C)C(=O)O)n2Cc1ccc(Cl)cc1 was read as FGF22 binding inactive, E coli growth 0.73, ALR inh -32&6, AF4-AF9 inh -0.8, Vif TR-FRET -5% and HNF4A DNA FP -3.4.
For CCOC(=O)Cn1cnc2sc(C(=O)OC)c(C)c2c1=O the results were E coli growth 0.68, ALR inh -5, rRNA inh HTS 13, AF4-AF9 inh -4.0, HNF4A DNA FP 3.5, rRNA inh HTS OD600 4 and rRNA inh HTS RFP -0.3.
For C[C@H]1CN([C@@H](C)CO)C(=O)Cc2cc(NC(=O)Nc3ccc(C(F)(F)F)cc3)ccc2O[C@@H]1CN(C)Cc1ccc(Cl)c(Cl)c1 the results were FGF22 binding inactive, rRNA inh HTS 2, AF4-AF9 inh 1.7, rRNA inh HTS OD600 12 and rRNA inh HTS RFP -2.1.
O=C(Nc1ccccc1F)c1cccc(C(=O)Nc2ccccc2F)c1 was read as FGF22 binding inactive, E coli growth 0.65, ALR inh -14, rRNA inh HTS -19, AF4-AF9 inh -1.7, HNF4A DNA FP -1.1, rRNA inh HTS OD600 -15 and rRNA inh HTS RFP 5.8.
`NC(=O)C1C2C=CC(C2)C1c1ccccc1` (centres undefined) gave FGF22 binding inactive, E coli growth 0.69, rRNA inh HTS 1, AF4-AF9 inh -2.6, Vif TR-FRET -2%, HNF4A DNA FP -0.3, rRNA inh HTS OD600 0 and rRNA inh HTS RFP 0.0.
Screening Cc1cc(C)n2nc(SCc3ccc(C#N)cc3)nc2n1 returned FGF22 binding inactive, E coli growth 0.64, ALR inh 0, rRNA inh HTS 10, AF4-AF9 inh 3.5, Vif TR-FRET 5%, HNF4A DNA FP 1.5, rRNA inh HTS OD600 11 and rRNA inh HTS RFP 4.3.
Screening C[C@@H]1CN([C@@H](C)CO)C(=O)c2cc(C#Cc3ccc(F)cc3)cnc2O[C@H]1CN(C)CC1CCOCC1 returned FGF22 binding inactive, rRNA inh HTS 2, AF4-AF9 inh 6.8, rRNA inh HTS OD600 10 and rRNA inh HTS RFP 2.0.
For CC(=O)N(CN1C(=O)c2ccccc2C1=O)c1ccc2c(c1)oc1ccccc12 the results were E coli growth 0.67, ALR inh -46 and HNF4A DNA FP 2.4.
Cc1ccc(NC(=O)CNC(C)c2ccccc2)cc1 (centres undefined) was read as FGF22 binding inactive, E coli growth 0.65, ALR inh -2, rRNA inh HTS 4, AF4-AF9 inh 0.3, Vif TR-FRET -5%, HNF4A DNA FP 0.5, rRNA inh HTS OD600 3 and rRNA inh HTS RFP 0.5.
`CCS(=O)(=O)N1CCCCN2[C@H](C1)[C@@H](c1ccc(C#Cc3ccccc3OC)cc1)[C@@H]2CO` gave FGF22 binding inactive, rRNA inh HTS 6, AF4-AF9 inh -8.2, rRNA inh HTS OD600 -1 and rRNA inh HTS RFP 14.
For CO[C@H]1CN(C)C(=O)c2ccc(NC(C)=O)cc2OC[C@@H](C)NC[C@H]1C the results were FGF22 binding inactive, rRNA inh HTS -2, AF4-AF9 inh -0.3, rRNA inh HTS OD600 2 and rRNA inh HTS RFP -1.3.
Screening O=C1CCCC/C1=C/Nc1ccc2c(c1)OCO2 returned E coli growth 0.69, ALR inh 2, Vif TR-FRET 5.9µM* and HNF4A DNA FP -2.5.
`COc1cc(/C=N/Nc2cccc(C)c2)ccc1OC(=O)c1cccs1` gave ALR inh 30, Vif TR-FRET 3% and HNF4A DNA FP 0.0.
For O=C(COc1ccccc1)Nc1nc(-c2cccs2)cs1 the results were E coli growth 0.68, ALR inh 1, Vif TR-FRET -3% and HNF4A DNA FP -1.9.
For O=C(N[C@H]1C=C[C@@H](CC(=O)N2CCOCC2)O[C@H]1CO)c1cccc(F)c1 the results were FGF22 binding inactive, rRNA inh HTS 4, AF4-AF9 inh -1.4, rRNA inh HTS OD600 -3 and rRNA inh HTS RFP -1.9.
Screening COc1cccc(C(=O)Nc2ccc3c(c2)C(=O)N(C)[C@H]2CC[C@H](CC(=O)NCC(F)(F)F)O[C@H]2CO3)c1 returned FGF22 binding inactive, rRNA inh HTS -4, AF4-AF9 inh -1.1, rRNA inh HTS OD600 -2 and rRNA inh HTS RFP 0.9.
`COc1ccc(C2=NN(C(=O)CSc3nnnn3C)C(c3ccco3)C2)cc1` (centres undefined) gave FGF22 binding inactive, E coli growth 0.69, ALR inh 3, rRNA inh HTS 6, AF4-AF9 inh inconclusive, Vif TR-FRET -8%, HNF4A DNA FP 11, rRNA inh HTS OD600 16 and rRNA inh HTS RFP -2.7.
O=C(O)c1cccc(-n2c(/C=C/c3ccc([N+](=O)[O-])cc3)nc3ccccc3c2=O)c1 was read as FGF22 binding inactive, E coli growth 0.65, ALR inh 17, rRNA inh HTS 4, AF4-AF9 inh 9.7, HNF4A DNA FP -4.5, rRNA inh HTS OD600 -4 and rRNA inh HTS RFP -5.9.
Screening O=c1cc(NS(=O)(=O)c2ccccc2)nc(SCc2ccccc2Cl)[nH]1 returned E coli growth 0.65, ALR inh 0, Vif TR-FRET 15% and HNF4A DNA FP -0.8.
Screening CCNC(=S)NNC(=O)CSc1nc2ccccc2[nH]1 returned E coli growth 0.68, rRNA inh HTS -3, AF4-AF9 inh 0.0, Vif TR-FRET 8%, HNF4A DNA FP -7.1, rRNA inh HTS OD600 5 and rRNA inh HTS RFP -0.8.
Cc1onc(-c2ccccc2Cl)c1C(=O)N1CCN(C/C=C/c2ccccc2)CC1 was read as E coli growth 0.66, ALR inh -3, Vif TR-FRET -4% and HNF4A DNA FP 2.5.
`CCCN1CN(CCc2ccccc2)CNC1=S` gave E coli growth 0.69, ALR inh -22 and HNF4A DNA FP -2.1.
`Cc1c(NS(=O)(=O)c2cccc(C(=O)Nc3ccc(SC(F)F)cc3)c2)c(=O)n(-c2ccccc2)n1C` gave FGF22 binding inactive, E coli growth 0.65, rRNA inh HTS -12, AF4-AF9 inh -2.3, HNF4A DNA FP -1.9, rRNA inh HTS OD600 -17 and rRNA inh HTS RFP 2.8.
CN1C(=O)c2cccc3c(S(=O)(=O)N4CCCC4C(=O)O)ccc1c23 (centres undefined) was read as FGF22 binding inactive, E coli growth 0.67, ALR inh -12, rRNA inh HTS 5, AF4-AF9 inh -0.5, HNF4A DNA FP 0.1, rRNA inh HTS OD600 4 and rRNA inh HTS RFP -0.3.
Cc1cccc(C(=O)NCC(=O)NC2CCC(C)CC2)c1 (centres undefined) was read as FGF22 binding inactive, E coli growth 0.69, ALR inh -5, rRNA inh HTS 0, AF4-AF9 inh -1.5, Vif TR-FRET 3%, HNF4A DNA FP -0.1, rRNA inh HTS OD600 4 and rRNA inh HTS RFP -2.8.
`CCOC(=O)C1(CCCc2ccccc2)CCN(C(=O)CN2C(=O)CSC2=O)CC1` gave FGF22 binding inactive, E coli growth 0.69, ALR inh -29, rRNA inh HTS -35, AF4-AF9 inh -0.7, Vif TR-FRET -4%, HNF4A DNA FP -2.2, rRNA inh HTS OD600 -55 and rRNA inh HTS RFP -1.9.
For O=C(NCc1ccccc1)[C@H]1CCCN1 the results were FGF22 binding inactive, rRNA inh HTS 16, AF4-AF9 inh -4.3, rRNA inh HTS OD600 23 and rRNA inh HTS RFP 4.0.
`CCN(CC)S(=O)(=O)c1ccc(F)c(C(=O)NCCC(C)C)c1` gave E coli growth 0.72, ALR inh -6, Vif TR-FRET 23% and HNF4A DNA FP -0.8.
Screening CCCNC(=O)N(C)C[C@H]1Oc2cc(C#Cc3ccccn3)ccc2S(=O)(=O)N([C@H](C)CO)C[C@H]1C returned FGF22 binding inactive, rRNA inh HTS 3, AF4-AF9 inh -4.1, rRNA inh HTS OD600 10 and rRNA inh HTS RFP -1.2.
Screening CCc1nnc(NC(=O)CSc2ccc(-c3ccco3)nn2)s1 returned FGF22 binding inactive, E coli growth 0.72, ALR inh -5, rRNA inh HTS 9, AF4-AF9 inh -1.7, Vif TR-FRET inconclusive, HNF4A DNA FP 1.6, rRNA inh HTS OD600 10 and rRNA inh HTS RFP 1.9.
Screening CCc1nc2ccc(C(=O)NCCCN3CCN(c4ccc(F)cc4)CC3)cc2nc1CC returned FGF22 binding inactive, E coli growth 0.65, ALR inh 27, rRNA inh HTS -16, AF4-AF9 inh 9.1, Vif TR-FRET 8%, HNF4A DNA FP 0.0, rRNA inh HTS OD600 -27 and rRNA inh HTS RFP 28.
For COC(=O)c1cc(C#N)c(Oc2ccccc2OC)nc1C the results were E coli growth 0.69, Vif TR-FRET -5% and HNF4A DNA FP -1.7.
Screening O=C(CCc1ccccc1)NNC(=O)c1ccc(Br)cc1 returned FGF22 binding inactive, E coli growth 0.73, ALR inh -8, rRNA inh HTS 4, AF4-AF9 inh -3.8, HNF4A DNA FP -0.9, rRNA inh HTS OD600 3 and rRNA inh HTS RFP -1.1.
`CCC(C)(C)NC(=O)c1cc(S(=O)(=O)N2CCCCC2)ccc1N1CCOCC1` gave FGF22 binding inactive, E coli growth 0.69, ALR inh 0, rRNA inh HTS 7, AF4-AF9 inh -3.5, Vif TR-FRET -1%, HNF4A DNA FP 0.6, rRNA inh HTS OD600 10 and rRNA inh HTS RFP 1.0.
CCCN(C(=O)C1CC(=O)N(c2ccccc2C(C)CC)C1)C1CCS(=O)(=O)C1 (centres undefined) was read as FGF22 binding inactive, E coli growth 0.68, ALR inh -1, rRNA inh HTS 13, AF4-AF9 inh 1.3, Vif TR-FRET 12%, HNF4A DNA FP 1.0, rRNA inh HTS OD600 13 and rRNA inh HTS RFP -0.7.
For COC(=O)NCC(c1ccco1)N1CCN(c2ccc(F)cc2)CC1 (centres undefined) the results were FGF22 binding inactive, E coli growth 0.67, ALR inh 92*, rRNA inh HTS 4, AF4-AF9 inh 0.7, HNF4A DNA FP -2.9, rRNA inh HTS OD600 16 and rRNA inh HTS RFP -2.6.
Screening Cn1c(N)c(C(=O)CSc2nnc(Cc3cccs3)n2C2CC2)c(=O)n(C)c1=O returned FGF22 binding inactive, E coli growth 0.67, ALR inh -1, rRNA inh HTS 11, AF4-AF9 inh -3.0, Vif TR-FRET -18%, HNF4A DNA FP -4.1, rRNA inh HTS OD600 16 and rRNA inh HTS RFP 1.7.
For O=c1cc(CN2CCOCC2)c2ccccc2o1 the results were FGF22 binding inactive, rRNA inh HTS 4, AF4-AF9 inh -1.8, HNF4A DNA FP -0.3, rRNA inh HTS OD600 0 and rRNA inh HTS RFP -7.9.
O=C(O)CCCCCCCCCCP(=O)(c1ccccc1)c1ccccc1 was read as FGF22 binding inactive, E coli growth 0.66, ALR inh 1, rRNA inh HTS 1, AF4-AF9 inh -0.8, Vif TR-FRET 13%, HNF4A DNA FP -5.8, rRNA inh HTS OD600 5 and rRNA inh HTS RFP 3.5.
For COc1ccc2c(c1)C(=C(C#N)C#N)C(=O)N2CCc1ccccc1 the results were FGF22 binding inactive, ALR inh -3, rRNA inh HTS 3, AF4-AF9 inh 2.3, HNF4A DNA FP 5.5, rRNA inh HTS OD600 -4 and rRNA inh HTS RFP -1.8.

Some of the compounds tested; count on the stated rates, not on these rows.
